Bioassay records deposited in PubChem BioAssay by ICCB-Longwood Screening Facility, Harvard Medical School.
MgrA DNA FP – alters Staphylococcus aureus MgrA binding to DNA; fluorescence polarization; inhibition, %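 (about 10 µg/mL by stock and volumes)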; AID 602314; hit rate 0.13% among 84,000;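 active = above 50% in either of two replicates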;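 note: 0% = protein plus DNA without compound and 100% = DNA alone without protein; higher means less MgrA bound to DNA so lower polarization; one replicate is shown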
Sa helicase inh – blocks Staphylococcus aureus DNA helicase; purified S. aureus helicase, fluorescence unwinding assay; about half of the hits fall short of the stated cut; inhibition, %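 (tested at about 80 µM)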; hit rate 0.05% among 120,000; AID 485395;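 active = both duplicates at 50% or more, or one of them with a favoured structure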;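 note: 0% = mean of negative control wells and 100% = mean of positive control wells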
* marks the source's active call; other numbers are inactive results; / = no result given.

Start of the listing, in advance, 20 compounds:
MgrA DNA FP,Sa helicase inh,SMILES
/,13,N#Cc1cccc(NC(=O)COC(=O)Cn2nc(-c3ccccc3)oc2=O)c1
/,14,CCOc1cc(/C=N/S(=O)(=O)c2cccs2)cc(Br)c1O
/,-15,CNC(=S)c1nc2ccccc2[nH]1
0.8,11,Cc1cc(C)c2c(n1)nn1c(C)c(CCC(=O)O)c(C)nc21
/,13,Cc1ccccc1OCC(O)CN(Cc1ccccc1O)C1CCCCC1 (stereo not drawn)
/,20,Cc1ccccc1OCc1nc2ccccc2[nH]1
/,8,COc1ccc(CNC(=O)c2oc3ccc(S(=O)(=O)N4CCOCC4)cc3c2C)cc1
4.0,/,CC(C)(Oc1ccc(C#N)cc1)C(=O)Nc1ccccc1
-1.3,-5,CCOC(=O)N(C)CCc1cc2c(cc1C)OCO2
/,3,CCN(CC)c1nccs1
4.2,3,O=C(NCc1ccccn1)C1C2C=CC(C2)C1C(=O)Nc1ccc(F)cc1 (stereo not drawn)
/,5,CCCN1C(=O)SC(CC(=O)Nc2ccccc2)C1=O (stereo not drawn)
0.6,/,CCOC(=O)c1cccc(CSC(=N)N)c1
/,-4,O=C1CC(c2ccccc2)C(=O)N1 (stereo not drawn)
0.1,/,O=C(OCCN1C(=O)c2cccc3c(N4CCOCC4)ccc(c23)C1=O)c1ccc([N+](=O)[O-])cc1
-0.1,-1,CC(C)(C)C1C/C(=C\c2ccc3c(c2)OCO3)C(=O)/C(=C/c2ccc3c(c2)OCO3)C1 (stereo not drawn)
/,2,CCCCN=C1SCC(c2cc3ccccc3o2)=NN1C
0.0,9,Cc1noc(C(=O)N2CCCc3ccccc32)c1Cl
0.3,/,O=C(Sc1c(Cl)cccc1Cl)N1CCOCC1
-1.3,14,Cc1ccc(NS(=O)(=O)c2c(C)ccc3nsnc23)cc1

The list itself, previewed entries included:
MgrA DNA FP,Sa helicase inh,SMILES
/,13,N#Cc1cccc(NC(=O)COC(=O)Cn2nc(-c3ccccc3)oc2=O)c1
/,14,CCOc1cc(/C=N/S(=O)(=O)c2cccs2)cc(Br)c1O
/,-15,CNC(=S)c1nc2ccccc2[nH]1
0.8,11,Cc1cc(C)c2c(n1)nn1c(C)c(CCC(=O)O)c(C)nc21
/,13,Cc1ccccc1OCC(O)CN(Cc1ccccc1O)C1CCCCC1 (stereo not drawn)
/,20,Cc1ccccc1OCc1nc2ccccc2[nH]1
/,8,COc1ccc(CNC(=O)c2oc3ccc(S(=O)(=O)N4CCOCC4)cc3c2C)cc1
4.0,/,CC(C)(Oc1ccc(C#N)cc1)C(=O)Nc1ccccc1
-1.3,-5,CCOC(=O)N(C)CCc1cc2c(cc1C)OCO2
/,3,CCN(CC)c1nccs1
4.2,3,O=C(NCc1ccccn1)C1C2C=CC(C2)C1C(=O)Nc1ccc(F)cc1 (stereo not drawn)
/,5,CCCN1C(=O)SC(CC(=O)Nc2ccccc2)C1=O (stereo not drawn)
0.6,/,CCOC(=O)c1cccc(CSC(=N)N)c1
/,-4,O=C1CC(c2ccccc2)C(=O)N1 (stereo not drawn)
0.1,/,O=C(OCCN1C(=O)c2cccc3c(N4CCOCC4)ccc(c23)C1=O)c1ccc([N+](=O)[O-])cc1
-0.1,-1,CC(C)(C)C1C/C(=C\c2ccc3c(c2)OCO3)C(=O)/C(=C/c2ccc3c(c2)OCO3)C1 (stereo not drawn)
/,2,CCCCN=C1SCC(c2cc3ccccc3o2)=NN1C
0.0,9,Cc1noc(C(=O)N2CCCc3ccccc32)c1Cl
0.3,/,O=C(Sc1c(Cl)cccc1Cl)N1CCOCC1
-1.3,14,Cc1ccc(NS(=O)(=O)c2c(C)ccc3nsnc23)cc1
/,-5,CCOC(=O)c1c(NC(=O)CSc2nncs2)sc2c1CCC2
-1.4,2,Cc1ccc(N(C)C(=O)[C@H]2[C@@H]3C[C@@H]4[C@H]2C(=O)O[C@@H]4C3)cc1
-0.7,/,O=C(NC1CCN(Cc2ccccc2)CC1)C1CCN(c2nccc(C(F)(F)F)n2)CC1
-0.5,/,O=c1c2cc(-c3ccccc3)sc2ncn1Cc1ccccc1Cl
/,-26,COc1ccc(OC)c(CCNC(=O)NCc2noc3ccc(C)cc23)c1
/,19,COc1ccc(OC)c(CNc2nc3ccccc3c3nnc(C)n23)c1
/,-19,CCOC(=O)c1sc(N(Cc2ccccc2)C(=O)CSc2n[nH]c(N)n2)nc1C
/,-20,O=S(=O)(c1ccc(Br)cc1)N1CCCC(C(F)(F)F)C1 (stereo not drawn)
3.2,7,O=c1c2ccccc2nc2n1-c1ccccc1CCC2
1.9,0,CCCOC(=O)CSc1nc(N)c(C#N)c(-c2ccc(C)cc2)c1C#N
0.6,11,Cc1oc2cc(O)ccc2c(=O)c1Oc1ccc(-c2ccccc2)cc1
-3.6,/,CCN(CC)c1ccc(/C=C2/N=C(c3cc(OC)c(OC)c(OC)c3)OC2=O)cc1
/,12,CC(C)(C)C(C)(C#N)Nc1ccc(Cl)cc1 (stereo not drawn)
1.0,/,CN(C)S(=O)(=O)c1ccc(C(=O)Nc2cccc3c2C(=O)c2ccccc2C3=O)cc1
/,7,O=C(CN1C(=O)C2CC=CCC2C1=O)OCc1cc(=O)n2cc(Br)ccc2n1 (stereo not drawn)
-1.4,/,N#Cc1ccsc1NC(=O)CSCC(=O)O
/,4,O=C1NC2=C(C(=O)OC2)C(c2ccc(O)cc2)N1 (stereo not drawn)
0.4,-14,C=CC(=O)NC(C)(C)CCN1CCOCC1
/,-24,CN1C(=O)/C(=C2\SC(=S)N(c3cccc(C(=O)O)c3)C2=O)c2ccccc21
/,5,CCn1cc(S(=O)(=O)CC(=O)Nc2ccc(C)cc2)c2ccccc21
/,18,Cc1ccc(C)c(OCCSc2ncccn2)c1
1.1,-11,CCC(C)(C)c1ccc(Oc2ccc(NC(=O)CSc3cccc[n+]3[O-])cc2)cc1
-2.4,/,Cc1nc(-c2c(-c3ccccc3)noc2C)cs1
2.0,-17,CC(C)(C)c1cn2c3ccccc3nc2n1CCN1CCCC1
-0.6,/,O=C(Nc1ccc(Cl)cc1)c1ccc(-c2ccccc2F)cc1
/,7,O=C(Cn1cnc(S(=O)(=O)N2CCCCC2)c1)NCCc1ccccc1
-2.0,-5,Cc1ccc(CNCc2ccncc2)cc1
/,-5,CC1=C(C)CC(C(=O)c2ccccc2)C(C(=O)O)C1 (stereo not drawn)
1.4,12,N#CCC(=O)N=Cc1ccc(Cl)cc1Cl
/,-36,CCCCN1C(=O)C2(/C(=C(/O)c3ccc(C)c(F)c3)C(=O)C(=O)N2CCN(C)C)c2ccccc21 (stereo not drawn)
/,5,C/C=C/c1ccc(OCC(O)CN(C)C2CCCCC2)c(OC)c1 (stereo not drawn)
-1.7,/,FC(F)(F)c1cnc(-n2nc(Br)nc2Br)c(Cl)c1
/,16,COc1ccc(N)c2nc(C)c(C)nc12
/,-20,COC(=O)c1ccc(C(=O)N=c2sc3cc(F)ccc3n2C)cc1
1.6,10,CSc1nc(-c2ccccc2)c2cc(Cl)ccc2n1
0.3,/,O=C(c1ccc(Cl)cc1)n1cc2c(n1)-c1cc(Cl)ccc1SC2
/,19,COCCCn1cnc2oc3nc4ccccc4nc3c2c1=O
-4.3,/,CCOC(=O)c1nn(-c2ccc(C(F)(F)F)cc2)cc(Sc2nnc(C(F)(F)F)n2C)c1=O
/,9,COc1ccc(OC)c(CCNC(=O)CN2C(=O)CC(C)(C)S(=O)(=O)c3ccccc32)c1
/,3,Cc1cc2nc(C)n(CCCN)c2cc1C

(more compounds)
MgrA DNA FP,Sa helicase inh,SMILES
-1.4,/,O=c1[nH]c2ccc(Cl)cc2c(-c2ccccc2)c1Sc1nc2ccccc2o1
-1.2,5,CC(C)CNC(=O)c1cc(-c2ccc(F)cc2)no1
/,11,CC(C)Sc1nc2[nH]ncc2c(=O)[nH]1
/,2,Cc1nnc(SCC(=O)N(C)Cc2ccccc2)n1Cc1ccccc1
-7.2,0,O=C(O)CCNc1nc2ccccc2s1
/,-12,CCOC(=O)Cc1n[nH]c(=S)n1C1CCCC1
2.1,-10,Cc1cc(C)n2ncc(C(=O)Nc3ccc(C)c(C)c3)c2n1
-2.5,-1,O=C(Nc1sccc1C(=O)NC1CCCC1)c1ccc(Br)s1
/,10,O=C(CSc1nnnn1C1CC1)N1c2ccccc2SCC1c1ccccc1 (stereo not drawn)
0.3,11,CN(C)C(=O)CCCc1nc(-c2ccc(Cl)cc2)no1
0.6,-15,O=C(c1cccc(Br)c1)c1nccn1-c1ccccn1
/,7,CCCCn1c(N)c(N(C)C(=O)CSc2nnc(-c3ccc(F)cc3)o2)c(=O)[nH]c1=O
-0.3,2,Cc1ccc(-c2nn3c(C)nnc3c3ccccc23)cc1S(=O)(=O)N1CCCC1
-31,8,CCC(OC(=O)C1=Cc2ccccc2OC1)C(=O)NC1CCCC1 (stereo not drawn)
-1.6,/,CCOC(=O)c1c(C)n(C)c2c1cc(OC(=O)c1ccc(OC)cc1)c1ccccc12
-0.1,/,OC(CNCc1ccco1)c1ccccc1 (stereo not drawn)
/,10,COc1cc2c(cc1OC)C1C(C(=O)NCC3COc4ccccc4O3)c3ccccc3C(=O)N1CC2 (stereo not drawn)
/,-15,O=S(=O)(Nc1nc2ccccc2nc1N1CCCC1)c1ccccc1
/,-13,CC1=CC(C)=NC2=C(c3ccccc3)S/C(=C3/C(=O)N(C)C(=S)N3C)N12
/,14,CC(C)Cn1c(SCC(=O)Nc2ccccc2)nc2ccccc21
/,-11,CC1=C(C(=O)NC(C)c2ccc3c(c2)OCCO3)C2(CCC(C)CC2)OC1=O (stereo not drawn)
-2.7,1,Cc1nn(-c2ccccc2)c2c1C(C(F)(F)F)(C(F)(F)F)N=C(N1CCOCC1)O2
-2.1,6,O=C(COc1ccc(Cl)cc1)Nc1ccc(Cn2ccnc2)cc1
2.9,/,CSc1nnc(-c2ccc(SC#N)cc2)o1
/,1,CCSc1nc2ccccc2n1C(=O)CCC(=O)O
0.8,/,Cc1nc(C(F)(F)F)ccc1C(=O)NC1CCCCNC1=O (stereo not drawn)
-1.6,12,N#CCN(CC#N)C(=O)c1cccc(C(=O)N(CC#N)CC#N)c1
/,17,Cc1cccc(N(C)c2nc3ccccc3n3c(C)nnc23)c1
6.2,9,CCCn1nnc(NC(=S)NC(=O)c2cccs2)n1
0.3,5,C=CCn1c(CNC(=O)c2ccco2)nnc1SCc1nc2ccccc2c(=O)[nH]1
/,-5,CC(=O)Nc1ccc(NC(=O)C(C)OC(=O)c2n[nH]c(=O)c3ccccc23)cc1 (stereo not drawn)
-0.9,/,Cc1onc(N=CN(C)C)c1C
/,-18,O=C(COc1ccc(-c2nnco2)cc1)c1ccc[nH]1
3.1,12,CCn1cnc2sc(C(=O)N(Cc3ccc(N(C)C)cc3)Cc3ccco3)c(C)c2c1=O
/,-8,Cn1c(CCC(=O)Nc2ccc(N3CCOCC3)cc2)nc(=O)c2ccccc21
-2.0,-1,c1ccc(Cn2c(CN3CCOCC3)nc3ccccc32)cc1
-3.2,/,O=C(O)c1cc2ccc(Br)cc2o1
1.5,-7,CNCc1sccc1C
-0.4,5,CCC(=O)Nc1cccc(NC(=O)c2cccs2)c1
2.3,10,c1coc(C2Nc3c(ccc4ccccc34)C3OCCC23)c1 (stereo not drawn)
1.6,21,Cc1cc(C(=O)OCC(=O)NC2CCCC2)c(C)n1-c1ccccc1
/,7,CCOC(=O)c1oc2ccccc2c1COC(=O)C1COc2ccccc2O1 (stereo not drawn)
1.0,13,CCc1ccc(C(=O)Nc2ccc(N(CC)CC)cc2C)cc1
-2.4,0,O=C(COc1ccccc1)NCCN1CCCC1
/,4,COc1ccc(NC(=O)COc2ccc(C)c(C)c2)cn1
/,-24,CCCSc1nc(C)cc(C)c1C(N)=O
-1.2,1,O=C(NC12CC3CC(CC(C3)C1)C2)C1=COCCO1
/,13,Cc1cc(C(=O)OCC(=O)C(C)(C)C)c2ccccc2n1
1.0,-13,O=C1c2ccccc2C(NCCc2ccccc2)N1CCc1ccccc1 (stereo not drawn)
/,0,CCCn1c(NC(=O)CCNC(C)=O)nc2ccccc21
4.7,8,c1ccc2c(c1)CC1(CCCCC1)n1nnnc1-2
/,-1,CC(C)NCC(O)COc1c(F)cc(Br)cc1F (stereo not drawn)
-0.9,/,CCCCCCCCCC(=O)n1c2ccc(F)cc2c2nc3ccccc3nc21
-5.8,-5,Cc1ccc(C(=O)c2nsc(Cl)c2Cl)cc1
0.1,/,Cc1cccc(Cn2nc(C(C)(C)C)cc2C(=O)N2CCOCC2)c1
/,-2,Cc1nc(C)c(C(=O)NCCC(c2ccccc2)c2ccccc2)o1
/,16,CCCOc1ccc(-c2[nH]ncc2Oc2ccccc2)c(O)c1
-0.9,/,COC(=O)CSc1cc(C(F)(F)F)nc2c(C(=O)OC)scc12
/,-20,CC(NC(=O)c1cn(-c2ccc(F)cc2)nn1)c1cccs1 (stereo not drawn)
-1.1,4,Cc1c(-c2ccc(Br)cc2)c(=O)oc2ccccc12

The list goes on:
MgrA DNA FP,Sa helicase inh,SMILES
/,-12,COC(=O)c1noc(C(=O)OC)c1OCC(=O)c1cc(C)n(Cc2ccccc2Cl)c1C
/,-14,CCN(c1ccccc1)S(=O)(=O)c1ccc2c(c1)OCCO2
/,17,N#CC1=C(SCC(=O)Nc2ccccc2C(F)(F)F)NC2=C(C(=O)CCC2)C1c1ccco1 (stereo not drawn)
/,-18,O=C(CSCCOc1ccccc1)N1CCCC1
/,-43,N/C(CSc1nc(SC/C(N)=N\O)ns1)=N\O
-26,7,O=C(Nc1cccc(Cl)c1)N1CCC(n2nnc3cc(F)ccc32)CC1
11,-5,COC(=O)c1sc(N)c(C(=O)OC)c1C
/,0,CNC(=S)N(C)CC(=O)Nc1c(Cl)cccc1Cl
-0.2,9,Cc1ccc(CNC(=O)C2CCC(CNc3nc(=S)[nH]c4ccccc34)CC2)cc1 (stereo not drawn)
-2.6,11,CC(=O)Nc1ccc(-c2csc(Nc3ccccc3C)n2)cc1

Looked up one by one from above (two):
MgrA DNA FP,Sa helicase inh,SMILES
-0.2,9,Cc1ccc(CNC(=O)C2CCC(CNc3nc(=S)[nH]c4ccccc34)CC2)cc1 (stereo not drawn)
-2.6,11,CC(=O)Nc1ccc(-c2csc(Nc3ccccc3C)n2)cc1

This is a subset. The share of hits here may be higher or lower than overall.
